UUG fidelity – yeast start codon fidelity modulation. S. cerevisiae UUG-firefly luciferase reporter, luminescence/redox ratio. activity score, % at 18.7 µM. 350,000 compounds, 0.13% hits;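 active = replicate mean at a twofold rise or more, about +100% in these data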;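 note: firefly luciferase made from a UUG start codon reports start codon fidelity; reporter light over untreated wells divided by growth signal over untreated wells; some hits fall short of that in this replicate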
HIV Env fusion – blocks HIV Env-driven cell-cell fusion; HeLa-JRFL Env/CEM21 cell fusion, luciferase; inhibition, % at 12.3 µM; 360,000 compounds, 1.1% hits;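 active = mean replicate inhibition score of at least 50 and every replicate individually at or above 50; inconclusive = only one of the two criteria met; inactive = mean below 50 and not all replicates reaching 50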;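 note: 0% = plate neutral controls and 100% = maraviroc near 300 nM; one replicate is shown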
The depositor's hits bear a star; ? = inconclusive; [ ] = another dose, or the depositor's remark. Some of the compounds tested, so the mix of outcomes need not match the whole.

SMILES | UUG fidelity | HIV Env fusion
C[C@@H]1CN([C@H](C)CO)C(=O)c2cc(NC(=O)Nc3cccc4ccccc34)ccc2O[C@@H]1CN(C)S(=O)(=O)c1ccccc1 | 0 | 8[16.7 µM]
C[C@H](CO)N1C[C@H](C)[C@@H](CN(C)S(=O)(=O)c2ccccc2)Oc2ccc(NS(=O)(=O)c3ccccc3)cc2CC1=O | 2 | -6[16.7 µM]
C[C@@H]1CN([C@@H](C)CO)C(=O)Cc2cc(NC(=O)CCCCCC(=O)Nc3ccccc3N)ccc2O[C@H]1CN(C)S(=O)(=O)c1ccccc1 | 8 | -5[16.7 µM]
C[C@@H]1CN([C@H](C)CO)C(=O)Cc2cc(NS(=O)(=O)c3cccs3)ccc2O[C@H]1CN(C)C(=O)Nc1ccccc1 | 0 | 12[16.7 µM]
COc1ccc(S(=O)(=O)Nc2ccc3c(c2)CC(=O)N([C@@H](C)CO)C[C@@H](C)[C@@H](CN(C)S(C)(=O)=O)O3)cc1 | 0 | 2[16.7 µM]
O=C(C[C@@H]1CC[C@@H](NC(=O)c2ccncc2)[C@H](CO)O1)NCCc1ccncc1 | 3 | 62*[16.7 µM]
C[C@@H]1CN([C@H](C)CO)C(=O)c2cc(NS(=O)(=O)c3cn(C)cn3)ccc2O[C@@H](C)CCCCO[C@H]1CN(C)Cc1ccccc1 | -3 | 5[16.7 µM]
COc1ccccc1C#Cc1cnc2c(c1)C(=O)N([C@@H](C)CO)C[C@@H](C)[C@H](CN(C)C(=O)CC1CC1)O2 | 2 | 10[16.7 µM]
C[C@@H]1CCCCO[C@@H](CN(C)Cc2ccc(Cl)c(Cl)c2)[C@H](C)CN([C@H](C)CO)C(=O)c2cc(NC(=O)Nc3ccc(C(F)(F)F)cc3)ccc2O1 | -11 | 16[16.7 µM]
C[C@H](CO)N1C[C@H](C)[C@H](CN(C)C(=O)Nc2ccc3c(c2)OCO3)Oc2ccc(NC(=O)Nc3ccc(C(F)(F)F)cc3)cc2CC1=O | 7 | 2[16.7 µM]
COc1ccc(S(=O)(=O)N[C@@H]2C=C[C@@H](CC(=O)NCCc3ccccc3)O[C@H]2CO)cc1 | -9 | -33[16.7 µM]
CNC[C@H]1OCCCC[C@@H](C)Oc2ccc(NS(=O)(=O)c3cn(C)cn3)cc2C(=O)N([C@H](C)CO)C[C@H]1C | -3 | 8[16.7 µM]
C[C@@H]1CN([C@@H](C)CO)C(=O)c2cc(NC(=O)c3ccncc3)ccc2O[C@H]1CN(C)Cc1ccc(C(F)(F)F)cc1 | 2 | 6[16.7 µM]
CNC[C@H]1Oc2ccc(NC(=O)C3CC3)cc2C(=O)N([C@H](C)CO)C[C@H]1C | -17 | -11[16.7 µM]
COc1ccccc1S(=O)(=O)N(C)C[C@@H]1Oc2cc(C#CCC3CCCC3)ccc2S(=O)(=O)N([C@@H](C)CO)C[C@@H]1C | -7 | 38[16.7 µM]
Cc1ccc(S(=O)(=O)Nc2ccc3c(c2)C(=O)N([C@H](C)CO)C[C@@H](C)[C@H](CN(C)C(=O)Nc2ccc(C(F)(F)F)cc2)OCCCC[C@@H](C)O3)cc1 | -12 | 20[16.7 µM]
COc1ccc(NC(=O)Nc2ccc3c(c2)C(=O)N([C@@H](C)CO)C[C@H](C)[C@@H](CN(C)C(=O)Nc2ccc4c(c2)OCO4)OCCCC[C@H](C)O3)cc1 | -1 | -8[16.7 µM]
COc1ccc(CNC(=O)C[C@H]2C[C@H]3c4cc(NC(=O)CC5CC5)ccc4O[C@H]3[C@H](CO)O2)cc1 | -8 | 0[16.7 µM]
CCC(=O)N(C)C[C@@H]1Oc2cc(Br)ccc2S(=O)(=O)N([C@H](C)CO)C[C@@H]1C | -2 | -10[16.7 µM]
C[C@H](CO)N1C[C@H](C)[C@H](CN(C)Cc2ccncc2)Oc2ncc(C#Cc3ccc(C(F)(F)F)cc3)cc2C1=O | 17 | 21[16.7 µM]
C[C@H]1CN([C@@H](C)CO)C(=O)c2cc(NS(C)(=O)=O)ccc2O[C@H]1CN(C)S(=O)(=O)c1ccc(Cl)cc1 | 2 | ?
O=C(C[C@@H]1CC[C@H](NC(=O)C2CC2)[C@@H](CO)O1)NC1CCC1 | -18 | -1[16.7 µM]
Cc1ccc(S(=O)(=O)Nc2cccc3c2O[C@H](CN(C)S(=O)(=O)c2ccccc2)[C@H](C)CN([C@H](C)CO)C3=O)cc1 | -5 | 7[16.7 µM]
COCC(=O)N(C)C[C@@H]1Oc2cc(-c3ccccc3)ccc2S(=O)(=O)N([C@@H](C)CO)C[C@H]1C | -3 | 2[16.7 µM]
C[C@H](CO)N1C[C@H](C)[C@@H](CN(C)C(=O)Cc2ccccc2)Oc2ncc(C3=CCCCC3)cc2C1=O | 8 | 2[16.7 µM]
CC(C)NC(=O)Nc1ccc2c(c1)C(=O)N([C@H](C)CO)C[C@H](C)[C@@H](CN(C)C(=O)Nc1ccc3c(c1)OCO3)OCCCC[C@H](C)O2 | -3 | 1[16.7 µM]
CCC(=O)Nc1ccc2c(c1)OC[C@@H](C)N(Cc1ccncc1)C[C@H](C)[C@@H](OC)CN(C)C2=O | -13 | 0[16.7 µM]
C[C@H]1CN([C@@H](C)CO)C(=O)Cc2cc(NC(=O)CCN3CCOCC3)ccc2O[C@@H]1CN(C)C(=O)Nc1ccc2c(c1)OCO2 | 7 | 15[16.7 µM]
Cc1noc(C)c1NC(=O)N(C)C[C@@H]1Oc2ccc(NC(=O)CCCCCC(=O)Nc3ccccc3N)cc2CC(=O)N([C@H](C)CO)C[C@@H]1C | 7 | 4[16.7 µM]
CCCC#Cc1cnc2c(c1)C(=O)N([C@@H](C)CO)C[C@@H](C)[C@@H](CN(C)C(=O)Nc1c(C)noc1C)O2 | 10 | 0[16.7 µM]
COc1ccc(CN(C)C[C@H]2OCCCC[C@@H](C)Oc3ccc(NS(=O)(=O)c4ccc(C)cc4)cc3C(=O)N([C@@H](C)CO)C[C@@H]2C)cc1 | 4 | 10[16.7 µM]
C[C@H]1CN([C@@H](C)CO)C(=O)c2cccc(NC(=O)Nc3ccccc3)c2O[C@@H]1CN(C)S(=O)(=O)c1ccccc1 | 7 | -6[16.7 µM]
C[C@@H]1CN([C@H](C)CO)S(=O)(=O)c2ccc(C3=CCCCC3)cc2O[C@H]1CN(C)Cc1cncnc1 | -19 | 23[16.7 µM]
Cc1ccc(S(=O)(=O)N(C)C[C@@H]2Oc3ccc(NC(=O)Cc4cn(C)c5ccccc45)cc3C(=O)N([C@@H](C)CO)C[C@@H]2C)cc1 | 2 | -13[16.7 µM]
O=C(NCC[C@H]1CC[C@@H](NC(=O)c2cccnc2)[C@H](CO)O1)Nc1ccc(Cl)cc1 | -10 | -11[16.7 µM]
COc1ccc(S(=O)(=O)N(C)C[C@H]2Oc3ccc(NS(=O)(=O)c4ccc(Cl)cc4)cc3CC(=O)N([C@@H](C)CO)C[C@@H]2C)cc1 | 5 | 0[16.7 µM]
C[C@@H]1CN([C@@H](C)CO)C(=O)c2cc(C#Cc3ccncc3)cnc2O[C@H]1CN(C)C(=O)CN(C)C | 3 | -14[16.7 µM]
CC(C)NC(=O)Nc1cccc2c1O[C@@H](CN(C)C(=O)Nc1cccc3ccccc13)[C@H](C)CN([C@H](C)CO)C2=O | 10 | -16[16.7 µM]
O=C(C[C@H]1C[C@H]2c3cc(NC(=O)Nc4ccccc4F)ccc3O[C@H]2[C@H](CO)O1)NCC1CC1 | -11 | 8[16.7 µM]
COc1ccc(NC(=O)O[C@H](c2ccc(OCCO)cc2)[C@@H](C)CCO)cc1 | 3 | 2[16.7 µM]
C[C@@H]1CN([C@H](C)CO)C(=O)c2cc(-c3ccc(C#N)cc3)cnc2O[C@@H]1CN(C)Cc1cccnc1 | -4 | 3[16.7 µM]
C[C@@H]1CN([C@@H](C)CO)C(=O)c2cc(NC(=O)c3ccccc3)ccc2O[C@@H](C)CCCCO[C@H]1CN(C)Cc1ccccc1 | 18 | 1[16.7 µM]
C[C@H]1CN([C@@H](C)CO)S(=O)(=O)c2ccc(C#CC3CCCC3)cc2O[C@@H]1CN(C)C(=O)Nc1cc(F)ccc1F | -3 | -33[16.7 µM]
C[C@H](O)C#Cc1cnc2c(c1)C(=O)N([C@@H](C)CO)C[C@H](C)[C@@H](CN(C)C(=O)Cc1ccccn1)O2 | 2 | -1[16.7 µM]
C[C@@H]1CN([C@@H](C)CO)C(=O)c2cc(NC(=O)Cc3ccccc3)ccc2O[C@@H](C)CCCCO[C@@H]1CN(C)C(=O)NC1CCCCC1 | 1 | 2[16.7 µM]

HIV Env fusion: entries above that show a hit
SMILES | UUG fidelity | HIV Env fusion
O=C(C[C@@H]1CC[C@@H](NC(=O)c2ccncc2)[C@H](CO)O1)NCCc1ccncc1 | 3 | 62*[16.7 µM]

Three entries already listed, ordered by length of the SMILES, rising.
SMILES | UUG fidelity | HIV Env fusion
COc1ccc(NC(=O)O[C@H](c2ccc(OCCO)cc2)[C@@H](C)CCO)cc1 | 3 | 2[16.7 µM]
O=C(C[C@H]1C[C@H]2c3cc(NC(=O)Nc4ccccc4F)ccc3O[C@H]2[C@H](CO)O1)NCC1CC1 | -11 | 8[16.7 µM]
COc1ccc(CN(C)C[C@H]2OCCCC[C@@H](C)Oc3ccc(NS(=O)(=O)c4ccc(C)cc4)cc3C(=O)N([C@@H](C)CO)C[C@@H]2C)cc1 | 4 | 10[16.7 µM]

Remaining list, next part.
SMILES | UUG fidelity | HIV Env fusion
O=C(C[C@@H]1CC[C@@H](NC(=O)Cc2ccccn2)[C@@H](CO)O1)NCCCN1CCOCC1 | -9 | 4[16.7 µM]
COCC(=O)Nc1ccc2c(c1)C(=O)N(C)[C@@H]1CC[C@@H](CC(=O)NCc3cccc(F)c3)O[C@H]1CO2 | 2 | 20[16.7 µM]
C[C@@H]1CCCCO[C@H](CN(C)C(=O)CCCN(C)C)[C@H](C)CN([C@H](C)CO)C(=O)c2cc(NC(=O)NC3CCCCC3)ccc2O1 | 19 | 20[16.7 µM]
COc1ccc(S(=O)(=O)Nc2ccc3c(c2)C(=O)N([C@H](C)CO)C[C@H](C)[C@H](CN(C)C(=O)CCCN(C)C)OCCCC[C@@H](C)O3)cc1 | -7 | 5[16.7 µM]
C[C@H](CO)N1C[C@H](C)[C@@H](CN(C)C(=O)Nc2ccc(F)cc2)Oc2c(NC(=O)Nc3ccc4c(c3)OCO4)cccc2C1=O | 3 | -34[16.7 µM]
Cc1noc(C)c1NC(=O)N(C)C[C@@H]1Oc2ccc(NC(=O)CCN3CCOCC3)cc2CC(=O)N([C@@H](C)CO)C[C@@H]1C | 11 | -12[16.7 µM]
CC(=O)N(C)C[C@@H]1Oc2cc(-c3ccc(C#N)cc3)ccc2S(=O)(=O)N([C@H](C)CO)C[C@H]1C | 10 | 4[16.7 µM]
CCCC#Cc1ccc([C@@H]2[C@@H](C#N)N(C(=O)C3CC3)[C@@H]2CO)cc1 | -2 | 12[16.7 µM]
C[C@H]1CN([C@@H](C)CO)C(=O)Cc2cc(NC(=O)CCC(F)(F)F)ccc2O[C@@H]1CN(C)Cc1ccc(Oc2ccccc2)cc1 | 10 | -6[16.7 µM]
C[C@@H]1CN([C@@H](C)CO)C(=O)c2cc(NC(=O)Nc3ccc(C(F)(F)F)cc3)ccc2O[C@@H](C)CCCCO[C@@H]1CN(C)S(=O)(=O)c1ccc(Cl)cc1 | -8 | -11[16.7 µM]
C[C@@H]1CN([C@H](C)CO)C(=O)Cc2cc(NS(C)(=O)=O)ccc2O[C@@H]1CN(C)S(=O)(=O)c1cccs1 | 3 | -7[16.7 µM]
CNC[C@H]1OCCCC[C@@H](C)Oc2ccc(NS(=O)(=O)c3ccc(C)cc3)cc2C(=O)N([C@H](C)CO)C[C@@H]1C | -2 | -3[16.7 µM]
C[C@@H]1CN([C@H](C)CO)C(=O)c2cc(NC(=O)Nc3ccc(F)cc3)ccc2O[C@@H]1CN(C)Cc1ccc(-c2ccccc2)cc1 | 12 | -5[16.7 µM]
COCC(=O)Nc1ccc2c(c1)C(=O)N(C)[C@H]1CC[C@@H](CC(=O)NC3CCCC3)O[C@@H]1CO2 | -17 | 39[16.7 µM]
COCC#Cc1ccc2c(c1)O[C@H](CN(C)Cc1ccccc1)[C@@H](C)CN([C@H](C)CO)S2(=O)=O | 1 | 11[16.7 µM]

Some of the entries above, set out differently.
Structure	UUG fidelity	HIV Env fusion
CCCC#Cc1ccc([C@@H]2[C@@H](C#N)N(C(=O)C3CC3)[C@@H]2CO)cc1	-2	12[16.7 µM]
C[C@H]1CN([C@@H](C)CO)C(=O)Cc2cc(NC(=O)CCC(F)(F)F)ccc2O[C@@H]1CN(C)Cc1ccc(Oc2ccccc2)cc1	10	-6[16.7 µM]

Following part.
SMILES | UUG fidelity | HIV Env fusion
C[C@@H]1CN([C@H](C)CO)C(=O)c2cc(C#Cc3ccccc3F)cnc2O[C@@H]1CN(C)S(=O)(=O)c1ccccc1 | 2 | 41[16.7 µM]
C/C=C/c1ccc2c(c1)O[C@@H](CN(C)S(C)(=O)=O)[C@@H](C)CN([C@H](C)CO)S2(=O)=O | 10 | 29[16.7 µM]
O=C(C[C@@H]1C[C@H]2c3cc(NS(=O)(=O)c4ccc(F)cc4)ccc3O[C@H]2[C@H](CO)O1)NCc1cccc(F)c1 | 18 | -14[16.7 µM]
N#C[C@H]1[C@@H](c2ccc(C3=CCCC3)cc2)[C@@H](CO)N1C(=O)Nc1ccccc1F | -14 | -2[16.7 µM]
C[C@@H]1CN([C@@H](C)CO)S(=O)(=O)c2ccc(Br)cc2O[C@H]1CN(C)S(C)(=O)=O | 11 | 14[16.7 µM]
COc1ccc(NC(=O)Nc2ccc3c(c2)C(=O)N([C@H](C)CO)C[C@@H](C)[C@H](CN(C)S(=O)(=O)c2ccc(Cl)cc2)OCCCC[C@@H](C)O3)cc1 | 7 | 21[16.7 µM]
Cc1ccc(S(=O)(=O)N(C)C[C@H]2Oc3ncc(Br)cc3C(=O)N([C@@H](C)CO)C[C@H]2C)cc1 | 108* | 23[16.7 µM]

Source: PubChem
